# A647 autofl – A647 region autofluorescence; max dye-equivalent concentration, M; Compound fluorescence, A647 channel (570/671 nm), Tris buffer; AID 592; 59,000 tested, under 10 active; active means above 1 µM dye equivalent; inconclusive means 0.1 to 1 µM; inactive means 0.1 µM or less;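 further: values scaled relative to a standard on each plate; highest value over a series up to 38 µM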
#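 Compounds pinned into 100 mM Tris pH 8.0, 15 min at room temperature, then read with 570 nm excitation/671 nm emission filters. Fluorescence normalized to an on-plate six-point Alexa 647 standard curve, giving dye-equivalent concentration per compound concentration.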
# Resorufin fluor – resorufin region autofluorescence | max dye-equivalent concentration, M | Compound fluorescence, resorufin region 547/598 nm, buffer; hits give high values | AID 588 | actives 0.04% (n = 59,000); active = above 10 nM dye equivalent; inconclusive = 1 to 10 nM; inactive = 1 nM or less; a few of its hits are not listed in these tables; further: highest value over a series up to 38 µM
#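 Read-out: intrinsic compound fluorescence at ex 547/em 598 nm after 15 min at RT in pH 8.0 Tris (100 mM). Values expressed as resorufin-equivalent concentration from per-plate standard series.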
# A488 fluor – A488 region autofluorescence. compound autofluorescence, A488 spectral region, dye equivalency; hits give high values. max dye equivalency, M. actives 0.1% (n = 59,000). AID 591; active = above 10 nM dye equivalent; inconclusive = 1 to 10 nM; inactive = 1 nM or less; about half of its hits are not listed in these tables;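 further: highest value over a series up to 38 µM; compound alone in buffer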
#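 Autofluorescence read at ex 480/em 540 nm after 15 min RT in 100 mM Tris pH 8.0; compound signal normalized to A488 standard series on each plate, reported as dye-equivalent concentration at each test concentration.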
# TSHR ag – TSH receptor (human) agonism. P16473. actives 0.48% (n = 73,000). HEK293-CNG-TSHR cells (CNG channel as cAMP sensor), membrane potential dye, cAMP. Potency, µM (titrated, usually from 57.1 µM), without a hit: at the highest dose activation, usual class: activators; active = well fitted activation curve of enough size with the parental cells flat; inconclusive = any curve in the parental cells; inactive = parental cells flat and receptor cells flat or falling; further: potency means the concentration at half of the fitted maximal effect; % of control where 0% means no effect; weak receptor curves with flat parental cells got no call and are not listed
# Target sequence (P16473 whole entry, looked up): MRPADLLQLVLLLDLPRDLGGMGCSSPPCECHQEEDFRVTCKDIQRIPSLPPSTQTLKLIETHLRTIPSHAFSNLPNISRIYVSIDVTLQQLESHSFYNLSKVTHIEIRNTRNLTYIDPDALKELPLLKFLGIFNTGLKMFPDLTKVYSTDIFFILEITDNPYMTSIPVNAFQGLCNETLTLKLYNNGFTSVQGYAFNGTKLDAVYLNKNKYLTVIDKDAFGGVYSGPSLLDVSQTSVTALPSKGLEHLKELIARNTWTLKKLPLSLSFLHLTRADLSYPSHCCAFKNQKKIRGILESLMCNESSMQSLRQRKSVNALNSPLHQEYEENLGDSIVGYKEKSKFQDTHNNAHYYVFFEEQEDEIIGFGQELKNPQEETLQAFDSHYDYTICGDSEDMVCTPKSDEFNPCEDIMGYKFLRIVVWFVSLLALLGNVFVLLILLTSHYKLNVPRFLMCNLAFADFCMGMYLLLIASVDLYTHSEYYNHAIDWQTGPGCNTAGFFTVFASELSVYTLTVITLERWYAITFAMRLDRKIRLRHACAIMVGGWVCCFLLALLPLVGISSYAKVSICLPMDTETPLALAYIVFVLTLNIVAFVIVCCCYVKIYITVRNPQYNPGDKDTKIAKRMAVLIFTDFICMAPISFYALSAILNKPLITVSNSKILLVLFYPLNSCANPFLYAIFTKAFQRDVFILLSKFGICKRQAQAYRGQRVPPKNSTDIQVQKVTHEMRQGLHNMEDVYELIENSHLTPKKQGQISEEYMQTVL
#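 HEK 293 cells stably expressing TSHR and a modified CNG channel, with CNG-only parental cells as counterscreen, were preloaded 60 min at room temperature with membrane potential dye containing 100 uM RO 20-1724. Compound exposure was 30 min, and depolarization was read as fluorescence at 590 nm.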
# AID923 – qHTS Assay for Allosteric/Competitive Inhibitors of Caspase-1: Spectroscopic Profiling in AFC Spectral Region. compound fluorescence, AFC spectral region (405/520 nm); almost no hit is shown here. actives 1.1% (n = 75,000). Potency, µM (top dose mostly 57.5 µM), for inactives: at the highest dose fluorescence increase, usual class: activators; active means well fitted activation curve with a large enough effect; inconclusive means small, poorly fitted or top-dose-only effect;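 further: potency means the concentration at half of the fitted maximal effect; 0% is about no effect; scaled to a free AFC standard on each plate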
#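 Titrations up to 57 uM read every 20 sec for 3 min (405/520 nm) with 50 nM caspase 1 and 5 uM Ac-WEHD-AFC, pH 7.5 HEPES buffer. Fluorescence-vs-time intercept gave baseline, scaled against on-plate AFC standard.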
# * = called active by the depositor; i = inactive; ? = inconclusive; · = no result given; [ ] = dose if it differs, or a comment. Some of the compounds tested (hit frequency here may not be typical).
SMILES,A647 autofl,Resorufin fluor,A488 fluor,TSHR ag,AID923
CCOC(=O)CN(C(=O)CSc1nnc(-c2cccc(OC)c2)o1)c1ccc(F)cc1,2.6e-08,i,i,?,1.4%
O=C(C1CCCO1)N(Cc1ccccc1)c1ccccc1 (centres undefined),1.2e-08,i,i,-5%,-1.1%
O=C(c1oc2ccccc2c1N1CCCCC1)N1CCCCC1,1e-09,i,i,?,0.9%
Cc1ccc(-n2nc(C)c3c2OC(N)=C(C#N)C3c2ccoc2)cc1 (centres undefined),1.7e-09,i,i,-2%,7.6%
CCOCCCNC(=O)C1CCN(S(=O)(=O)N(CC(C)C)CC(C)C)CC1,4.2e-09,i,i,6%,0.7%
CSCCC(NC(=O)c1ccc(=O)n(C)n1)c1nc2ccccc2[nH]1 (centres undefined),1e-09,i,i,?,-1.2%
COCCCn1cnc2oc3nc4ccccc4nc3c2c1=O,2.6e-08,i,i,-6%,4.9%
CCCCNC(=O)c1ccccc1C(=O)NCCCC,9.4e-09,i,i,?,1.5%
COc1ccc(OC)c(CCNC(=O)CN2C(=O)CC(C)(C)S(=O)(=O)c3ccccc32)c1,·,·,·,12%,1.0%
COc1ccc(S(=O)(=O)N2CCC(C(=O)N3CCCC3)CC2)cc1Cl,8.2e-09,i,i,1%,-3.6%
Cc1cc2nc(C)n(CCCN)c2cc1C,1.3e-08,i,i,·,3.3%
CCOC(=O)c1oc2ccccc2c1CN1CCOCC1,2.9e-08,i,i,?,-0.4%
COc1ccc(CNC(=O)C2CCN(c3nccs3)CC2)cc1,4.6e-09,i,i,5%,0.3%
CCN(Cc1ccccc1)S(=O)(=O)c1ccc(S(=O)(=O)N2CCN(C)CC2)cc1,1e-09,i,i,1%,0.0%
O=C(CCS(=O)(=O)c1ccc(Cl)cc1)N1CCN(c2ccccc2F)CC1,6.4e-09,i,i,4%,-0.5%
O=C(O)CSc1nnc(-c2cccnc2)n1Cc1ccccc1,2.1e-08,i,i,-62%,-0.1%
CC(CCc1ccccc1)NC(=O)c1ccc(Br)o1 (centres undefined),3.5e-09,i,i,1%,1.1%
CCOC(=O)CCNCC1COc2ccccc2O1 (centres undefined),1.8e-08,i,i,10%,-0.7%
COc1ccccc1CC1(C)NC(=O)N(CC(=O)N2CCc3ccccc3C2)C1=O (centres undefined),4.5e-09,i,i,10%,-0.2%
CCn1cc(S(=O)(=O)CC(=O)Nc2ccc(C)cc2)c2ccccc21,1e-09,i,i,1%,0.6%
O=c1c2ccccc2nc2n1-c1ccccc1CCC2,3.5e-08,i,i,2%,-1.5%
C[C@]12CC[C@@H]3c4ccc(O[C@@H]5O[C@H](C(=O)O)[C@@H](O)[C@H](O)[C@H]5O)cc4CC[C@H]3[C@@H]1C[C@@H](O)[C@@H]2O,1.7e-09,i,i,·,·
COc1ccc(OC)c(NC(=O)C2CCCC2)c1,2.1e-08,i,i,-12%,-0.8%
COc1ccc(CC(=O)NCc2cn3ccsc3n2)cc1,2.1e-09,i,i,1%[11.4 µM],0.4%
COc1cccc(Nc2ncc3ncc(=O)n(Cc4ccc(F)cc4)c3n2)c1,4.6e-09,i,i,6%,?
COc1ccc2[nH]cc(CCNc3ccnc(-c4ccoc4)n3)c2c1,1.7e-09,i,i,-2%,2.3%
O=C(c1ccc(Br)o1)N1CCN(C/C=C/c2ccccc2)CC1,1e-09,i,i,-4%,1.3%
CC1=C(C)CC(C(=O)c2ccccc2)C(C(=O)O)C1 (centres undefined),1.4e-09,i,i,-4%,1.2%
Cn1c(=O)c2c(nc(/C=C\c3cccc(Cl)c3)n2C)n(C)c1=O,2.4e-09,i,i,6%,0.9%
COc1cccc(CNC(=O)C2CCN(Cc3cnn(-c4ccccc4)c3-n3cccc3)CC2)c1,9.1e-09,i,i,29%,2.5%
COc1ccc(C2CC(C(F)(F)F)n3nc(C(=O)N(C)Cc4cn(C)nc4C)c(Cl)c3N2)cc1 (centres undefined),3.6e-08,i,i,-2%,-0.3%
O=S(=O)(c1ccc2c(c1)OCCO2)N1CCC(c2nc3ccccc3[nH]2)CC1,3.6e-09,i,i,10%,0.3%
CCOC(=O)c1sc(NC(=O)CSc2nnc(-c3ccco3)o2)c(C(=O)OCC)c1C,2e-08,i,i,15%,2.0%
CCOCCCNC(=O)c1ccccc1Br,1e-09,i,i,19%,-0.5%
CC(=O)Oc1ccc2oc3c(c2c1)C(=O)CCC3,2.2e-08,i,i,4%,0.7%
O=C(NCc1ccc2c(c1)OCO2)C1CCCN1C(=O)Nc1ccccc1 (centres undefined),1.6e-08,i,i,5%,-0.6%
O=C(COc1ccc(Cl)cc1Cl)NC(=O)N1CCOCC1,3.2e-09,i,i,4%,0.1%
CCOC(=O)c1ccccc1NC(=O)CSc1nc2ccccc2n1CC(=O)N1CCCC1,6.4e-09,i,i,24%,-0.9%
CCC(C)[C@@H](NC(=O)OC(C)(C)C)c1nnc(S(=O)(=O)Cc2cccc(C)c2)o1 (some centres undefined),1e-09,i,i,13%,1.0%
COc1ccccc1-c1cc(C(=O)NCc2ccc(F)cc2)no1,1e-09,i,i,-3%[11.4 µM],3.3%
COC(=O)CNC(=O)C12CC3(C)CC(C)(CC(C)(C3)C1)C2,2.8e-08,i,i,13µM*,-1.0%
CC(=O)Nc1ccc2c(c1)CCCN2C(=O)c1ccccc1,4.1e-08,i,i,7%,-0.7%
Cc1cccc(CCNS(=O)(=O)c2cnc[nH]2)c1,1.8e-09,i,i,4%,-2.3%
COC(=O)CSc1nc(C2CC2)nc2ccccc12,1.8e-09,i,i,?,-0.8%
COc1ccc2c(C(F)(F)F)cc(=O)oc2c1C,1e-09,i,i,13%,1.4%
O=C(c1ccc2c(c1)C(=O)N(Cc1ccco1)C2O)N1CCOCC1 (centres undefined),·,·,·,-3%,2.0%
CCN(C1CCCCC1)S(=O)(=O)c1cc(C)ccc1OC,5.4e-09,i,i,?,-1.2%
Cc1nc2ccc(NC(=O)c3c(-c4ccccc4)noc3C)cc2s1,1.1e-08,i,i,1%[11.4 µM],1.2%
CCOc1cccc(C(=O)Nc2ccc(N3CCN(S(C)(=O)=O)CC3)cc2)c1,1e-08,i,i,1%[11.4 µM],2.0%
Cc1nc(NCc2ccccc2)c2nc(-c3ccccc3)n(CCN3CCCCC3)c2n1,·,·,·,?,-2.0%
NC(=O)c1c(NC(=O)COC(=O)CSc2nnc(-c3ccc(Cl)cc3)o2)sc2c1CCC2,1e-08,i,i,24%,1.0%
CCCCN(CCCC)S(=O)(=O)c1ccc(C(=O)Nc2nnc(COC)o2)cc1,5.1e-09,i,i,10%,-1.3%
CCCN(CCC)C(=O)CSc1nc2n[nH]c(C)c2c(=N)n1-c1ccc(OCC)cc1,1e-09,i,i,·,0.0%
CCCC1(CCC)NC(=O)NC1=O,3.1e-08,i,i,-3%,1.9%
CCc1cccc2c(=O)c(C(=O)N3CCOCC3)c[nH]c12,1e-09,i,i,0%,1.3%
CCOCCCNS(=O)(=O)c1ccc(Br)cc1,1.3e-08,i,i,-9%,0.3%
CC(Cc1ccccc1)N/C=C1/CC(=O)NC1=O (centres undefined),·,·,·,4%[11.4 µM],0.1%
CCCCOc1ccc(C(=O)Oc2ccc(C)nc2)cc1,2.1e-08,i,i,10%[11.4 µM],-0.3%
CS(=O)(=O)N(CC(=O)N1CCC(C(N)=O)CC1)c1ccc(Oc2ccccc2)cc1,·,·,·,6%,-1.1%
COc1cccc(NC(=O)C2CCN(c3ncccn3)CC2)c1,1e-09,i,i,·,1.8%

# Ordered by value in AID923 (largest number first): seven from the list above
Molecule | Resorufin fluor | AID923
O=C(c1ccc2c(c1)C(=O)N(Cc1ccco1)C2O)N1CCOCC1 (centres undefined) | · | 2.0%
COc1cccc(NC(=O)C2CCN(c3ncccn3)CC2)c1 | i | 1.8%
COc1ccc2c(C(F)(F)F)cc(=O)oc2c1C | i | 1.4%
CCCN(CCC)C(=O)CSc1nc2n[nH]c(C)c2c(=N)n1-c1ccc(OCC)cc1 | i | 0.0%
CC(=O)Nc1ccc2c(c1)CCCN2C(=O)c1ccccc1 | i | -0.7%
COC(=O)CNC(=O)C12CC3(C)CC(C)(CC(C)(C3)C1)C2 | i | -1.0%
CS(=O)(=O)N(CC(=O)N1CCC(C(N)=O)CC1)c1ccc(Oc2ccccc2)cc1 | · | -1.1%

# The listing continues.
SMILES,A647 autofl,Resorufin fluor,A488 fluor,TSHR ag,AID923
CCOC(=O)c1ccc(Oc2nc(NC(C)(C)C)nc(N(C)C)n2)cc1,2.7e-09,i,i,?,0.4%
Cc1ccc(C(=O)CCC2CCCC2=O)cc1 (centres undefined),6.2e-09,i,i,30%,-1.8%
O=C1NC(c2cccs2)Nc2ccccc21 (centres undefined),4.7e-08,i,i,·,·
Cc1ccc(/C(O)=C2/C(=O)C(=O)N(CCN3CCOCC3)C2c2cccnc2)cc1 (centres undefined),·,·,·,4%,-0.4%
COc1ccc(CNc2ncnc3ccc(-c4c(C)noc4C)cc23)c(OC)c1,6.2e-09,i,i,17%,3.1%
CCOC(=O)c1ccc(NS(=O)C23CC4CC(CC(C4)C2)C3)cc1 (centres undefined),·,·,·,14%,-1.2%
CN(C(=O)OCc1ccccc1)C(CC(N)=O)C(=O)O (centres undefined),·,·,·,2%,-1.3%
N#C[C@@H]1[C@@H]2C(=O)N(c3ccc4c(c3)OCCO4)C(=O)[C@@H]2C2c3ccccc3C=CN21 (some centres undefined),3.9e-08,?,i,-3%[11.4 µM],20%
C[C@@H](C(=O)NCCc1c[nH]c2ccccc12)[C@H]1C[C@]1(C)[C@H](NC(=O)OCc1ccccc1)c1ccccc1,·,·,·,?,-0.1%
CC(C)NC[C@H]1CCc2cc(CO)c([N+](=O)[O-])cc2N1,1.2e-08,i,i,-2%[25.6 µM],0.1%[25.7 µM]
O=C(CSC1=NC(=O)C(Cc2ccccc2)C(=O)N1)NC1CCCCC1 (centres undefined),3.3e-08,i,i,3%,-0.1%
CCOC(=O)C(C)Sc1nnc(Cc2cc(=O)[nH]c(=O)[nH]2)n1-c1ccc(OCC)cc1 (centres undefined),·,·,·,4%,-0.5%
CN(CC(=O)N1CCN(c2ccccn2)CC1)S(=O)(=O)c1ccccc1,1e-09,i,i,-1%,-1.5%
O=C(NCc1cccs1)c1ccc2c(c1)ncn2C1CCCC1,7.1e-09,i,i,-2%,-2.2%
COc1cccc(OC)c1-c1nnc(-c2cn(C)c3ccccc23)o1,2.6e-08,i,i,?,0.7%
CCN(CC)S(=O)(=O)c1cccc(C(=O)NC2CCCCC2)c1,1e-09,i,i,14%,0.9%
COc1ccc(OC)c2[nH]c(=O)c(CCNC(=O)c3ccc(S(=O)(=O)N4CCCCC4)cc3)cc12,1e-09,i,i,·,2.2%
O=C1C=C[C@@H](O)[C@H]2[C@@H]3C(=O)N(Cc4ccc5c(c4)OCO5)C(=O)[C@@H]3CC[C@H]12,·,·,·,-6%[11.4 µM],-1.0%[11.5 µM]

# As a short view, part of the list above:
SMILES,A647 autofl,Resorufin fluor,A488 fluor,TSHR ag,AID923
C[C@@H](C(=O)NCCc1c[nH]c2ccccc12)[C@H]1C[C@]1(C)[C@H](NC(=O)OCc1ccccc1)c1ccccc1,·,·,·,?,-0.1%
CC(C)NC[C@H]1CCc2cc(CO)c([N+](=O)[O-])cc2N1,1.2e-08,i,i,-2%[25.6 µM],0.1%[25.7 µM]
O=C(CSC1=NC(=O)C(Cc2ccccc2)C(=O)N1)NC1CCCCC1 (centres undefined),3.3e-08,i,i,3%,-0.1%
CCOC(=O)C(C)Sc1nnc(Cc2cc(=O)[nH]c(=O)[nH]2)n1-c1ccc(OCC)cc1 (centres undefined),·,·,·,4%,-0.5%
CN(CC(=O)N1CCN(c2ccccn2)CC1)S(=O)(=O)c1ccccc1,1e-09,i,i,-1%,-1.5%
O=C(NCc1cccs1)c1ccc2c(c1)ncn2C1CCCC1,7.1e-09,i,i,-2%,-2.2%
COc1cccc(OC)c1-c1nnc(-c2cn(C)c3ccccc23)o1,2.6e-08,i,i,?,0.7%
